Bioassay records deposited in PubChem BioAssay by several laboratories.
Mtb H37Rv – M. tuberculosis H37Rv growth inhibitors, H37Rv strain (AID 1626); M. tuberculosis H37Rv growth inhibition; higher % means a stronger effect; one-dose inhibition, % at 10 µM; IC50 in µM for titrated hits; hit rate 0.95% among 220,000;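 active = confirmed in a dose series; inconclusive = inhibition above 80% but not taken into the dose series; inactive = below 80% or under 30% at every dose of the series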;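 also: bacteria incubated seven days before Alamar blue readout; 0% = bacteria only wells and 100% = bacteria with antibiotic wells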
RecA intein inh – blocks M. tuberculosis RecA intein splicing; cell-free RecA intein splicing, fluorescence; inhibition, %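 (about 9 µM by stock and volumes)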; AID 2221; hit rate 0.75% among 290,000; in the data active = inhibition above about 30%; inconclusive = no clear call, values can overlap the other calls;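 also: 0% = vehicle wells and 100% = reference inhibitor control wells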
Target sequence (P9WHJ3 whole entry, looked up): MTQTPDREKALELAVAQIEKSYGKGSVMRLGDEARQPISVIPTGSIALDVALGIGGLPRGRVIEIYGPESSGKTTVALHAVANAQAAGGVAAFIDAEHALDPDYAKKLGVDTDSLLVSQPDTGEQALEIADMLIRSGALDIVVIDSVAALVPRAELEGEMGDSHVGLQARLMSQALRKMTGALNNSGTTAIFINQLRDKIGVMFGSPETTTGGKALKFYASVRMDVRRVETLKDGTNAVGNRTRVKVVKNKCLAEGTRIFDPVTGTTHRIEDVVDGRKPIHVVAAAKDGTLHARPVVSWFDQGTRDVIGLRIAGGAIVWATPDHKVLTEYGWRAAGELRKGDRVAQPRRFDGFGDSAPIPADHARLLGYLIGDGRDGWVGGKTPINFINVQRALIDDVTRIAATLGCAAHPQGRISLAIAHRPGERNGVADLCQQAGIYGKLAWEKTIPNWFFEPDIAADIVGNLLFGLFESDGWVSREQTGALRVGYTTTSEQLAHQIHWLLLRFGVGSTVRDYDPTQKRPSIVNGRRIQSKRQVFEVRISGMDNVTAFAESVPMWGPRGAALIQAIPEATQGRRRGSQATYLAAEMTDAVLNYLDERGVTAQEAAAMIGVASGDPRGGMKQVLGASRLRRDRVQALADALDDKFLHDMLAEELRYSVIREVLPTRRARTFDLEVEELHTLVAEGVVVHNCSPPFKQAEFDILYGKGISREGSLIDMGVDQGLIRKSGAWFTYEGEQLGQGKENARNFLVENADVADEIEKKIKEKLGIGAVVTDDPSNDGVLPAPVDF
YopH PTP inh – blocks Yersinia enterocolitica YopH tyrosine phosphatase; fluorescence Ex485/Em525; inhibition, %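 (about 10 µM by stock and volumes)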; hit rate 0.16% among 140,000; AID 898;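 active = inhibition of 50% or more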;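 also: controls were vehicle for no effect and minimum signal wells for full effect; inactives centre near -20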
Mtb bLac sens – beta-lactam sensitization of Mtb H37Rv; hit rate 0.27% among 330,000; M. tuberculosis H37Rv growth with meropenem, percent inhibition; hits of this screen are not shown here; inhibition, % at 25 µM;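 active = about 74% or more and at least 40 points above the plate without the antibiotic, then above 30% in a dose series; inconclusive = first-round hits that could not be retested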;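 also: growth measured after seven days incubation then overnight dye step; 0% = bacteria only wells and 100% = bacteria with antibiotic; twin plates without the antibiotic show which effects depend on it; some results filed as inactive read as strong as hits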
Arbovirus anti – arbovirus infection inhibition; arbovirus infection cell-based antiviral screen; inhibition, % at 10 µM; AID 1251; hit rate 0.37% among 200,000;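 active = inhibition from about 30%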;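 also: bluetongue infection of BSR cells; cell survival read as ATP light after 72 h; 0% = infected wells without compound and 100% = uninfected wells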
Arbovirus anti repeat – further read-out of Arbovirus anti, marked with its call; inhibition, %; measured here: 10K subset replicate screen; many hits read low in the repeat;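 first of two repeat runs on a subset; 0% = infected and 100% = uninfected wells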
* marks the source's active call; other numbers are inactive results; ? = inconclusive; . = not tested or not shown. A portion of the library. The share of hits here may be higher or lower than overall.

SMILES	Mtb H37Rv	RecA intein inh	YopH PTP inh	Mtb bLac sens	Arbovirus anti	others
O=C(NCc1ccccn1)[C@@H]1C[C@H]1[C@@H](NP(=O)(c1ccccc1)c1ccccc1)c1ccccc1	-6%	1.1	-19	-18	-7
Cc1ccc(NS(=O)(=O)c2ccc(NS(=O)(=O)c3cccs3)cc2)cc1	3%	-1.1	-36	12	15
CCc1ccccc1NC(=O)C1CCN(C(=O)c2cccs2)CC1	.	-2.0	.	-2	.
CCCS(=O)(=O)N1CCN(C(=O)COc2ccc(-c3ccccc3)cc2)CC1	-4%	-0.8	-24	-1	-5
CCN(CC)c1ccc(/C=C2/C(=O)NC(=O)N(Cc3ccco3)C2=O)cc1	2%	-0.5	8	-2	6
O=S(=O)(N/N=C/c1ccc2c(c1)OCCO2)c1ccc(Cl)cc1	0%	-3.5	-28	-5	1
Cc1ccc(-n2nnc(-c3cccnc3Cl)n2)cc1	6%	-0.6	.	3	4
CC(=O)OCN(C#N)c1nc(N(C)C)nc(N(C)C)n1	3%	2.0	-42	79	2
O=C(CN1C(=O)NC2NC(=O)NC21)NN=C1CCCC1 (centres undefined)	-3%	-0.4	7	-1	-14
Cc1ccccc1OCC(=O)Nc1ccccc1CO	-1%	2.0	-33	-3	5
COc1cc(C(C#N)N2CCCCC2)ccc1O (centres undefined)	1%	-6.8	-4	-8	6
O=C(CSc1nc2ccccc2[nH]1)Nc1ccc(F)c(F)c1	-8%	2.9	5	9	14
COC(=O)c1c(NC(=O)C2CCCCC2)sc2c1CCN(C(C)C)C2	.	-5.7	.	8	.
Cc1ccc(Oc2ncccc2C(=O)NCC(=O)O)cc1	-18%	-1.9	.	-7	.
CC(C)CN(C(=O)COC(=O)c1ccc(-c2ccccc2)cc1)C1CCS(=O)(=O)C1 (centres undefined)	4%	4.4	.	31	7
CC1(C)c2ssc(=S)c2-c2ccccc2N1C(=O)c1ccco1	-8%	3.7	-39	-2	-1
CCc1sc(C(=O)NC(C)C2CCCO2)cc1Br (centres undefined)	.	5.2	.	-16	.
O=C(Cc1ccccc1)Nc1ccc(NC(=O)c2ccco2)nc1	10%	-1.9	-42	-7	-2
CC(C)CN1CCN(Cc2cccc3nccnc23)CC1CCO (centres undefined)	6%	-0.7	.	2	1
CCOC(=O)c1[nH]c2ccc(Br)cc2c1NC(=O)CCN1CCCC(C)C1 (centres undefined)	-5%	-0.3	-25	-2	4
O=C(NCCCN1CCOCC1)c1ccc2c(c1)N(Cc1c(F)cccc1Cl)C(=O)c1ccccc1S2	.	-6.1	.	51	.
Cc1ccccc1NC(=O)c1ccc(Cl)c(NC(=O)c2ccncc2)c1	-3%	-2.0	-37	1	3
O=c1[nH]c2cc3c(cc2cc1CN(CCc1ccccc1)Cc1nnnn1CC1CCCO1)OCO3 (centres undefined)	-3%	.	-46	10	-9
CCC(=O)NC(Cc1ccccc1)c1ccc2c(c1)OCCCO2 (centres undefined)	-1%	-0.5	-9	1	0
CCn1c(=O)c(-[n+]2ccccc2)c(O)c2ccccc21	-7%	-5.0	-40	-10	0
CCOC(=O)c1c(C)[nH]c(C)c1S(=O)(=O)NCCCc1ccco1	.	-0.5	.	-5	.
CCCc1cc(=O)[nH]c(SCC(=O)N(CC(C)C)C2CCS(=O)(=O)C2)n1 (centres undefined)	-8%	-0.3	-58	-4	2
Cc1cccc(N2CCN(C(=O)Cc3ccc(Br)cc3)CC2)c1C	14%	10	2	31	-6
CN(C)S(=O)(=O)c1cccc(NC(=O)/C=C/c2ccccc2[N+](=O)[O-])c1	-8%	-3.0	.	3	4
CC(=O)Nc1sc2c(c1C#N)CC(C)(C)NC2(C)C	3%	-1.1	-30	5	19

5 entries already listed, ordered by number of heavy atoms, smallest number first:
SMILES	Mtb H37Rv	RecA intein inh	YopH PTP inh	Mtb bLac sens	Arbovirus anti	others
CCc1sc(C(=O)NC(C)C2CCCO2)cc1Br (centres undefined)	.	5.2	.	-16	.
CCC(=O)NC(Cc1ccccc1)c1ccc2c(c1)OCCCO2 (centres undefined)	-1%	-0.5	-9	1	0
Cc1ccccc1NC(=O)c1ccc(Cl)c(NC(=O)c2ccncc2)c1	-3%	-2.0	-37	1	3
CCOC(=O)c1[nH]c2ccc(Br)cc2c1NC(=O)CCN1CCCC(C)C1 (centres undefined)	-5%	-0.3	-25	-2	4
O=C(NCCCN1CCOCC1)c1ccc2c(c1)N(Cc1c(F)cccc1Cl)C(=O)c1ccccc1S2	.	-6.1	.	51	.

Further compounds:
SMILES	Mtb H37Rv	RecA intein inh	YopH PTP inh	Mtb bLac sens	Arbovirus anti	others
C/C(=N/NC(=O)C(=O)N/N=C(/C)c1ccccc1)c1ccccc1	3%	-2.7	.	0	-1
C[N+](C)(C)CC(O)CC(=O)O (centres undefined)	.	0.6	.	-3	.
CCN(CC(=O)NC(C)C)C(=O)C(CCSC)NC(=O)c1cccc(C)c1 (centres undefined)	-3%	2.7	-8	8	-6
CCCC(=O)C1=C(O)C(C(=O)OC)C(C)(C)CC1=Nc1cccc2ccccc12 (centres undefined)	4%	16	44	-3	-14
CCc1ccc2[nH]c(=O)c(CN(CCN3CCOCC3)C(=O)Nc3ccccc3F)cc2c1	2%	-4.5	-7	-8	-11
CCCOP(=O)(OCCC)C(NC(=O)c1cc(OC)c(OC)c(OC)c1)c1ccccc1 (centres undefined)	-5%	0.0	.	2	9
COCCN(C(=O)Nc1ccccc1)c1ccccc1C	-5%	5.0	24	-6	2
CCc1nc(Nc2ccncc2)c2oc3ccccc3c2n1	3%	0.3	-14	5	-6
O=C(NCCCNCc1ccccc1)c1ccncc1	-5%	-0.7	-44	-2	1
Cc1cc(C)cc(NC(=O)CSc2nnc(CN3CCOCC3)n2C)c1	-7%	1.9	-5	-8	0
Cn1cccc1Cc1nnc(SCC(=O)N2CCCCCC2)n1-c1ccc(F)cc1	-11%	2.3	-40	-5	-5	Arbovirus anti repeat=0
O=S(=O)(NC1CCCCC1Nc1ccccc1)c1ccccc1 (centres undefined)	-6%	7.3	-19	-2	11
Cc1cccc(N(C)c2cc(C)nc3nc(C)nn23)c1	-4%	-1.1	-41	0	-9	Arbovirus anti repeat=-2
N#Cc1c(C(F)(F)F)cc(-c2cccs2)nc1SC(C(=O)O)c1ccccc1 (centres undefined)	.	-1.7	.	-1	.
COc1ccccc1NC(=S)NCc1ccc(S(N)(=O)=O)cc1	-2%	1.3	-26	-2	-2
COCCNC(=O)Cn1cc(/C=C2\C(=O)NC(=O)N(c3cccc(C)c3C)C2=O)c2ccccc21	.	-0.2	.	-1	.
O=C(NN1CC(=O)N(c2cc(Cl)cc(Cl)c2)CC1=O)c1cccs1	-11%	1.8	.	-3	.
O=C(Nc1ccc(Cl)cn1)c1ccccc1SCc1ccccc1	.	1.4	.	9	.
O=C(NNC(=O)C1CCC(C(=O)NNC(=O)c2cccs2)CC1)c1cccs1 (centres undefined)	-10%	-5.0	.	-6	8
COc1cc(CC(=O)O)c(C(C)=O)cc1OC	-10%	-1.2	-39	-2	4	Arbovirus anti repeat=6
COCCNC(=O)c1nc2c(nnn2Cc2cc(C)ccc2C)c(=O)[nH]1	-7%	4.1	-16	4	-3
O=[N+]([O-])c1cccc(/C=C/c2ccccn2)c1	4%	1.2	.	6	.
CCOc1cc(/C=C(\C#N)C(=O)Nc2ccccc2C(=O)O)ccc1OC(=O)c1ccc(C)cc1	.	-3.8	.	5	.
COc1ccc(C2=NN(Cc3c(F)cccc3Cl)C(=O)CC2)cc1	28%	7.3	.	99	-3
COc1ccc2c(c1)c1ccccc1n2C	-6%	-0.3	-15	7	-3
COc1cc(CC(=O)Nc2ccc3nc(C)sc3c2)cc(OC)c1OC	-7%	0.3	-42	3	17
Cc1cccc(N2CCN(S(=O)(=O)c3c(C)noc3/C=C/N(C)C)CC2)c1C	.	-0.4	.	1	.
CC1(C)CSC(=NCc2ccccc2)N1	1%	8.8	.	3	-2
Nc1nnc(SCc2cccnc2)s1	3%	2.1	-39	-5	9
Cc1[nH]c2ccccc2c1CCCNC1CCCCC1	2%	-2.7	-20	1	-2
Cc1cc(=O)c(C(=O)O)cn1Nc1ccc(Cl)cc1	1%	2.1	-51	37	7
Cc1ccc(S(=O)(=O)N2CC3CC(C2)c2cccc(=O)n2C3)cc1 (centres undefined)	-8%	0.3	-8	1	9
COc1cccc(-c2[nH]nc3c2C(c2ccsc2)C(C#N)=C(N)O3)c1 (centres undefined)	3%	76*	-3	-3	-1
COC1OC(CO)C(O)C(O)C1O (centres undefined)	-3%	-0.7	.	1	4	Arbovirus anti repeat=4
O=C(Oc1ccc(Cl)c2ccccc12)N1CCCCC1	15%	4.1	6	65	8
CCCCC1=CC2=CC(=O)C(C)(OC(=O)CC)C(=O)C2=CN1c1ccc(OC)cc1 (centres undefined)	0%	1.4	.	1	.
CCc1nnc(NC(=O)CSc2nc(-c3ccccc3)cc(-c3ccc(F)cc3)c2C#N)s1	-5%	-6.9	-15	7	-10
COC(=O)C1=C(O)/C(=C\c2ccc(CNC(=O)C(=O)Nc3ccc(C)cc3)o2)N=C1C	-1%	1.5	13	4	-15
O=C(NCc1nnc(SCC(=O)N2CCCCCC2)o1)c1ccc(F)cc1	.	-3.9	.	-9	.
O=C(CCCNC(=O)c1ccc(Cl)cc1)Nc1ccccc1C(F)(F)F	.	0.8	.	0	.
COc1ccc(-c2nc3ccccc3c(=O)n2CCOc2ccccc2C)cc1	1%	.	-16	12	15
CC(C)(C)C(=O)c1cnc(Nc2ccccc2Cl)s1	13%	4.6	6	23	3
COc1ccc2ccc3c(c2c1)N=C[C@]1(O3)N(C)c2ccccc2C1(C)C	1%	89*	5	15	13
COCCn1ccc2c(OCC(=O)NCc3ccc(C)cc3)cccc2c1=O	.	-1.7	.	0	.
Cc1ccc(S(=O)(=O)NC(=O)c2ccc(-c3ccc(C)c4ccccc34)o2)cc1	-10%	20	-12	-8	20

Fetched one by one from above:
SMILES	Mtb H37Rv	RecA intein inh	YopH PTP inh	Mtb bLac sens	Arbovirus anti	others
O=C(CCCNC(=O)c1ccc(Cl)cc1)Nc1ccccc1C(F)(F)F	.	0.8	.	0	.
Cc1ccc(S(=O)(=O)N2CC3CC(C2)c2cccc(=O)n2C3)cc1 (centres undefined)	-8%	0.3	-8	1	9
COCCn1ccc2c(OCC(=O)NCc3ccc(C)cc3)cccc2c1=O	.	-1.7	.	0	.

Next part.
SMILES	Mtb H37Rv	RecA intein inh	YopH PTP inh	Mtb bLac sens	Arbovirus anti	others
CC1CCCCN1CC(O)COCc1ccc(Cl)cc1 (centres undefined)	.	-0.6	.	7	.
Cc1cccnc1CCNC(=O)C1CCC(=O)N(Cc2cccc(F)c2)C1 (centres undefined)	.	-51	.	-1	.
CCCSc1nc2sc3c(c2c(=O)[nH]1)CC(C)(CC)OC3 (centres undefined)	.	-0.4	.	-1	.
NC(=O)C1CCN(C(=S)c2ccc(-c3ccc(Br)cc3)o2)CC1	-6%	3.4	.	1	0
CCN(CC)CCNC(=O)CS(=O)Cc1nc(-c2ccc(Cl)cc2)oc1C (centres undefined)	-3%	-0.9	-35	-8	10
O=C(C[n+]1ccccc1)Nc1ccccc1	.	-3.0	.	1	.
CCC(NC(=S)NC1CCCCC1)c1ccccc1 (centres undefined)	.	2.0	.	3	.
CCOC(CCn1c(SCc2cccc([N+](=O)[O-])c2)nc2ccccc2c1=O)OCC	12%	4.4	-42	2	0
CCNC(=O)NC(=O)COC(=O)CCCSc1nc2ccccc2[nH]1	.	-3.6	-28	-14	6
COc1ccc(/C=C/C(=O)Nc2cc(C(F)(F)F)ccc2Cl)cc1	-8%	0.8	-35	-1	-3
Cc1cc(NC(=O)CSc2nc(CC(C)(C)C)nc3c2c(=O)n(C)c(=O)n3C)no1	-1%	-0.6	-44	-5	-6
O=C1OC(/C(=C\Nc2ccccc2)[N+](=O)[O-])c2ccccc21 (centres undefined)	.	-0.6	.	0	.
CC(C)NC(=O)c1onc(CSc2ccccc2F)c1C(=O)O	-4%	2.6	-144	0	-7
CC(C)c1ccc(NC(=O)COC(=O)/C=C/c2cccc(Br)c2)cc1	?	-7.5	21	48	10
O=C(COc1ncnc2sccc12)N1CCN(C(=O)c2ccco2)CC1	-8%	-6.3	.	-9	14
C=CCNc1ccc(N2C(=O)C3CCC(C)CC3C2=O)cc1[N+](=O)[O-] (centres undefined)	3%	5.5	.	-2	-4
COc1cc2ncnc(NCc3ccccc3Cl)c2cc1OC	1%	-0.7	.	-3	2
CCOc1cc(CNCCO)cc(Br)c1OCc1ccc(Cl)cc1Cl	?	8.8	-29	100	-30
